Screening data from PubChem BioAssay.
TRPV1 PAM: enhances activation of the human vanilloid receptor TRPV1 | 320,000 compounds, 0.02% hits | AID 540277 | Q8NER1 | TRPV1-expressing cells, Fluo-8 calcium influx, capsaicin EC20 potentiation; host cell line not named in the record; control for the full effect not named in the record | potentiation, % at 8.33 µM; active means potentiation above 80%; inconclusive means 30% to 80%; inactive means below 30%; further: 0% is about no effect
Target sequence (Q8NER1 whole entry, looked up): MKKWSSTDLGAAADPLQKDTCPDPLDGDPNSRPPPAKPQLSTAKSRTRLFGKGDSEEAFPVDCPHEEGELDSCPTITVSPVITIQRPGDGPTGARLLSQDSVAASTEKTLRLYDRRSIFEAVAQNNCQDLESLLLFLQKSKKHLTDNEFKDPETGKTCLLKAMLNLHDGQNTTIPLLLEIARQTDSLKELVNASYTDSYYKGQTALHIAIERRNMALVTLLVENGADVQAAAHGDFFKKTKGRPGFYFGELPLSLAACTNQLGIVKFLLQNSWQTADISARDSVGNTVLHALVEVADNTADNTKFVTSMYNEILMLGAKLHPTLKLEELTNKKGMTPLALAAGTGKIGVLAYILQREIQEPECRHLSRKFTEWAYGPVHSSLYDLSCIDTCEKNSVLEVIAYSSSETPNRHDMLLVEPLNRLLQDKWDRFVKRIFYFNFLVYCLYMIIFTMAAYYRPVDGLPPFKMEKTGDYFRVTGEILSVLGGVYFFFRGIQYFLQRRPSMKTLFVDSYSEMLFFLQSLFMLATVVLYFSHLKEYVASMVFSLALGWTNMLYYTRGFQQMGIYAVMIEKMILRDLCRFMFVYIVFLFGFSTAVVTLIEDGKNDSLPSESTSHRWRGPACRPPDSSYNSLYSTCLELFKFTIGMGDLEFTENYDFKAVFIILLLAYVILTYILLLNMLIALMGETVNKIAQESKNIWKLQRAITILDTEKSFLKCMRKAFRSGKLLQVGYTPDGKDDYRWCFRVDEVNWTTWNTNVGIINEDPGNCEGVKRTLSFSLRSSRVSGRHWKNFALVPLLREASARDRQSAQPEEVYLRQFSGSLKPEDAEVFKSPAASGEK
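Cells expressing TRPV1 were dye-loaded with Fluo-8 and read kinetically: 10 s baseline, 3 min after compound (agonist portion), then 2 min after EC20 capsaicin (allosteric enhancer portion). Calcium-bound dye fluorescence at 480/520 nm.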
gsp antag: antagonists of gsp mutant (McCune-Albright syndrome); gsp-mutant cells, cAMP HTRF, 30 min; control for the full effect not named in the record; Potency, µM (highest dose often 76.9 µM), without a hit: at the highest dose activity change, negative = inhibition, usual class: inhibitors; 340,000 compounds, 0.4% hits; active = falling curve of any shape with a large fitted effect; inconclusive = falling curve, mostly with a smaller effect; inactive = flat or rising curve; cell line not stated here;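 further: intracellular cAMP measured with PDE inhibitor Ro 20-1724 present during compound exposure; potency means the concentration at half of the fitted maximal effect; on the % scale 0 is the no-effect control and ±100 the full control effect; nearly all actives have a fitted effect of over 65% in size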
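Measurement of cellular cAMP by homogeneous time-resolved fluorescence following a 30 min compound exposure at 37C. The PDE inhibitor […] was present throughout; the assay buffer was DPBS with 0.05% BSA and 0.005% Tween 20.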
gsp ag: activates gsp, the McCune-Albright syndrome mutation | gsp mutant cells, cAMP HTRF, 30 min; control for the full effect not named in the record | Potency, µM (series often up to 76.9 µM), for inactives: top-dose activation (cAMP increase), usual class: activators | 340,000 compounds, 0.13% hits | AID 624287; active = well fitted activation curve with a large enough effect; inconclusive = small, poorly fitted or top-dose-only effect, or another doubt; inactive = no such curve, though single readings can be large or run the other way; cell line not stated here;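 further: phosphodiesterase inhibitor Ro 20-1724 added with compounds to block cAMP breakdown; potency means the concentration at half of the fitted maximal effect; nearly all actives have a fitted effect of over 60% in size; about a fifth of the inactives were tested at one dose only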
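Cells in DMEM/10% FBS with G418 were pretreated with compounds in DMSO plus […] (300 uM stock) for 30 min at 37C. cAMP was measured by HTRF (cAMP-d2 plus anti-cAMP antibody-K) after 30 min at room temperature.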
Sfp PPTase inh: inhibitors of Bacillus subtilis Sfp phosphopantetheinyl transferase; 310,000 compounds, 3.5% hits; Potency, µM, for the others: max response, negative = inhibition, actives largely listed as inhibitors; Biochemical Sfp PPTase activity, qHTS; active means well fitted inhibition curve with a large enough effect; inconclusive means small, poorly fitted or top-dose-only effect, or another doubt; inactive means no such curve, though single readings can be large or run the other way;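 further: the enzyme is Sfp with the accession as filed and its product quenches rhodamine fluorescence; potency means the concentration at half of the fitted maximal effect; 0% = enzyme reaction without inhibitor and -100% = no enzyme wells; top concentration of the series not given in the record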
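Buffer: 50 mM Hepes-Na pH 7.6, 10 mM MgCl2, 0.01% Nonidet P-40, 0.01% BSA. Enzyme 15 nM, pre-exposed to compound 15 min; substrates then added and fluorescence change tracked over 30 min.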
Menin-MLL FL inh: inhibitors of human menin-MLL interaction, wild-type MLL peptide. 290,000 tested, under 10 active. AID 1766. FP activity change, % at 61.4 µM. Fluorescence polarization, fluorescein-MLL peptide displacement from menin; inconclusive = falling polarisation curve, or a change in total fluorescence; inactive = total fluorescence flat and polarisation flat or rising; no compound was filed as active; the % refers to the polarisation; negative = inhibition;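 further: % of control where 0% means no effect; inhibitors lower the polarisation; unlabelled MLL peptide was the positive control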
ClpP mod: qHTS Assay for Activators of ClpP | ATP-dependent Clp protease proteolytic subunit (Bacillus subtilis (strain 168)), P80244 | purified B. subtilis ClpP, FRET peptide cleavage, 20 min | Potency, µM (series often up to 57.5 µM), without a hit: at the top dose activity change, negative = active | 340,000 compounds, 1.9% hits | AID 651965, 2013; active = well fitted falling curve with a large enough effect; inconclusive = small, poorly fitted or top-dose-only effect; inactive = no such curve, though single readings can be large or run the other way; further: potency means the concentration at half of the fitted maximal effect; the source files actives as falling curves though it sought activators and does not explain the sign; nearly all actives have a fitted effect of over 65% in size; many hits overshoot -100%
Target sequence (P80244 whole entry, looked up): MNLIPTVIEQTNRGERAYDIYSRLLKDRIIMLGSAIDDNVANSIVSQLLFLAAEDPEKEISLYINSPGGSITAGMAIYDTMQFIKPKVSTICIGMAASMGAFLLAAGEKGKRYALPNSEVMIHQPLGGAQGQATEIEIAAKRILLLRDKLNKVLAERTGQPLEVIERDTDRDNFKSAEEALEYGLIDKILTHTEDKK
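ClpP 10 microg/mL final, pH 8 Tris/KCl buffer with BSA, glycerol, Tween-20; compound pinned in; FRET-FV substrate; RT 20 min; Ex320/Em430; ΔFRET vs ADEP 5.8 microM, DMSO, no enzyme.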
TRPML1 inh: inhibitors of human TRPML1 channel. Q9GZU1. TRPML1-inducible cells, Ca2+ dye fluorescence, FDSS; active compounds read low; inhibition of EC80 agonist-evoked calcium signal. activity change, negative = inhibition, % (no concentration beside the values). 390,000 compounds, 0.02% hits. AID 624415; in the data active means activity change below about -50%; inconclusive means about -30% to -50%; inactive means above about -30%;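 further: stimulus is agonist 54-4 at its EC80 concentration; on the % scale 0 is the no-effect control and ±100 the full control effect; compound concentration not given in the record; the text of the record puts the active cut at -80%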
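Tet-induced TRPML1-DL cells loaded with Ca8 no-wash calcium dye were read kinetically on FDSS. Compound addition was followed by EC80 agonist 54-4 (4 uM final); inhibition was read over 110 s.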
* hit, by the source's call; ? = inconclusive; / = not tested or not shown; & = joins results of further samples; [ ] = remark or other dose.

SMILES	TRPV1 PAM	gsp antag	gsp ag	Sfp PPTase inh	Menin-MLL FL inh	ClpP mod	TRPML1 inh
COc1ccc(OC)c(NC(=O)Cn2cc(C(=O)c3ccco3)c3ccccc32)c1	3	-6%	-44%[inhibitor]	17%	-0.2	-3.1%	10
Cc1ccccc1N=C/C=C1\N(C)c2ccccc2C1(C)C	-3	-12%	10%	8%	9.9	1.9%	5
Cc1ccc(N2C(=O)N(CC(=O)c3cc(C)ccc3C)C(=O)C2C)cc1 (stereo not given)	-7	-3%	-17%	13%	3.1	-2.4%	24
O=C(CNC(=O)c1ccccc1)OCC(=O)c1c[nH]c2ccccc12	/	-8%	1%	/	/	/	3
COc1ccc(CCC(=O)Nc2ccc(Cn3ccnc3)cc2)cc1	-10	6%	-21%	11%	1.2	-2.5%	13
CCOc1ccc(-c2nc(CN3CCCCC3CCn3cccn3)c(C)o2)cc1 (stereo not given)	-4	2%	-24%	7%	6.8	-3.1%	-2
C/C(=N\NC(=O)c1ccncc1)c1cccs1	-18	11%	13%	10%	-0.7	-0.3%	-4
O=C(CNC(=O)c1ccc(S(=O)(=O)N2CCCC2)cc1)N/N=C/c1c(Cl)cccc1Cl	1	-10%	-7%[15.4 µM]	-14%	-0.5	-5.0%	-15
Nc1c(Cl)cnn(-c2ccccc2)c1=O	/	5%	5%	/	/	-0.6%	-5
COC1=CC(=O)C[C@@H](C)[C@]12Oc1c(Cl)c(OC)cc(OC)c1C2=O	4	-3%	/	2%&-12%&12%	-1.2&1.1&-1.5	4.4%	5
CC(=O)NC(CCS(C)(=O)=O)C(=O)Nc1ccc2c(c1)OCCO2 (stereo not given)	-1	-1%	12%	0%	0.4	0.7%	4
COc1ccc(/C=C(\NC(=O)c2ccccc2Cl)C(=O)NCCCC(=O)O)cc1	-7	6%	?	-16%	-1.2	/	-10
CCOC(=O)CCC(=O)NNC(=O)c1ccc(NC(=O)c2ccccc2)cc1	11	7%	-10%	12%	1.3	0.2%	-13
COc1ccc(NC(=O)C2CCCC2)cn1	0	7%	-3%[15.4 µM]	13%	-2.3	1.5%	4
COc1cccc(/C=C/C(=O)NCc2ccc3c(c2)OCO3)c1	-29	-2%	-20%	1%	-0.1	/	10
Cn1c(=O)c2c(nc(CN3CCOCC3)n2CC(=O)c2ccccc2)n(C)c1=O	/	-4%[15.4 µM]	-28%	/	/	-1.3%	-22
Cc1c(NC(=O)COc2ncnc3ccccc23)c(=O)n(-c2ccccc2)n1C	9	14%	?	11%	2.4	1.4%	11
COc1ccc(C2NN=C(c3ccc(C)cc3)S2)cc1 (stereo not given)	2	-2%	-28%	9%	-0.6	?	-4
O=C(COc1ccccc1)NC1CCCCC1	-1	-5%	10%	0%	4.6	-2.5%	-13
COc1nc2c(s1)C(=O)NCCC2	1	4%	-80%[inhibitor]	12%	2.2	-0.2%	-28
CCC/C(=N\NC(=O)CCC(=O)NCc1ccccc1)c1ccccc1	-1	-7%	-13%[15.4 µM]	16%	1.9	/	-4
Cc1ccc(NS(=O)(=O)c2c(C)[nH]c(=O)[nH]c2=O)c(Br)c1	2	-5%	13%	4%	5.5	-1.5%	23
CCNc1nc(NCC)nc(NC(N)=S)n1	1	4%	13%[15.4 µM]	-7%	-0.8	28µM*	-9
C[C@@H]1CN([C@H](C)CO)C(=O)c2cc(NS(=O)(=O)c3cccs3)ccc2O[C@H]1CN(C)Cc1ccccc1	/	-1%	2%	/	/	-15%	49
Cc1cc(C(=O)O)cc(Br)c1N	-1	4%	31%[15.4 µM]	-11%	7.9	/	-5
O=C(N1CCN(c2ccc(F)cc2)CC1)C1(c2cccs2)CCOCC1	0	?	1%	-2%	5.3	-0.6%	4
NC(=O)C1CCCN(C(=S)NCc2ccc3c(c2)OCO3)C1 (stereo not given)	17	-6%	3%	15%	1.0	/	4
CC1C(=O)C(C)C(c2cccs2)NC1c1cccs1 (stereo not given)	?	-20%	?	8%	0.0	-0.2%	-5
COc1ccc(C2(C)NC(=O)N(CC(=O)NC3CCCC3)C2=O)cc1OC (stereo not given)	0	12%	4%	/	/	-1.4%	-1
O=S(=O)(NNc1ccc(F)cc1F)c1cccc(Cl)c1	-5	1%	18%[15.4 µM]	?	2.5	-2.4%	14

Next compounds follow:
SMILES	TRPV1 PAM	gsp antag	gsp ag	Sfp PPTase inh	Menin-MLL FL inh	ClpP mod	TRPML1 inh
CCCNC(=O)c1cc(OC)c(OC)cc1[N+](=O)[O-]	6	7%	-17%	22%	1.6	-0.4%	21
c1ccc(CSc2nnc(SCc3ccccn3)s2)nc1	28	7%	?	10%	1.5	-1.2%	-6
CCOC(=O)CNC(=O)c1sc(NC(=O)c2ccccc2F)nc1C	-7	-3%	15%	-2%	2.2	-3.2%	19
CCOC(=O)c1ccc(-n2c(C)nc3c(cnn3-c3ccc(Cl)cc3)c2=O)cc1	4	-7%	17%	20%	1.1	-1.2%&-0.9%	25&-5
O=C(COC(=O)CCc1ccc(S(=O)(=O)N2CCCCC2)cc1)Nc1ccc2c(c1)OCO2	-12	-6%	-3%	-17%	1.4	-1.2%	3
COc1ccc(CN(C)C[C@H]2OCCCC[C@@H](C)Oc3ccc(NS(C)(=O)=O)cc3C(=O)N([C@H](C)CO)C[C@@H]2C)cc1	/	/	-23%	/	/	-1.7%	3
CCC1(C)Cc2ccccc2-c2nc[nH]c(=O)c21 (stereo not given)	-35	-6%	-19%[15.4 µM]	2%	-4.4	-17%	-1
COc1cc(/C=N/NC(=O)[C@H](Cc2c[nH]c3ccccc23)NC(=O)OCC(C)C)cc([N+](=O)[O-])c1O	0	-22%	-32%[inhibitor]	6%	2.7	0.2%	-14
CCCCCCn1c(N2CCC(C(N)=O)CC2)nc2c1c(=O)[nH]c(=O)n2C	1	12%	1%	14%	-1.5	-1.7%	12
C=CCNC(=O)C1CC2c3ccccc3C1c1ccccc12 (stereo not given)	/	-18%	-3%[15.4 µM]	/	/	-11%	-7
Cc1ccc2c(c1)C1NC(=S)NC(C)(O2)C1C(=O)Nc1ccc(Cl)cc1 (stereo not given)	23	-23%	-15%[15.4 µM]	21%	0.1	-0.6%	-10
CCOC(=O)CNC(=O)c1ccccc1Br	0	0%	12%	2%	2.9	?	7
CS(=O)c1ccc(-n2c(=O)n(Cc3ccccc3)c(=O)c3[nH]cnc32)cc1 (stereo not given)	-3	-2%	?	-11%	-4.3	/	14
Cn1c(=O)c2sccc2n(CC(=O)NCCC2=CCCCC2)c1=O	-4	-11%	-48%[inhibitor]	5%	7.4	1.0%	-9
O=C(COc1ccc(S(=O)(=O)Nc2cccc(C(F)(F)F)c2)cc1)N1CCOCC1	20	1%	-44%[inhibitor]	9%	3.9	-1.2%	-9
Cn1c(C(=O)N2CCC(C(N)=O)CC2)cc2cc(Cl)ccc21	-1	8%	-49%[inhibitor]	19%	0.5	/	11
Cc1ccc(NC2=CC(=O)C(=O)c3ccccc32)c(C)c1	20	-1%	3%	/	/	3.0%	4
O=C1CSC(c2ccccn2)N1c1ccc(F)cc1F (stereo not given)	1	4%	0%[15.4 µM]	19%	-4.5	1.3%	-3
CC1CCCC(NC(=O)CN2C(=O)COc3ccccc32)C1C (stereo not given)	2	8%	-23%	12%	8.4	-1.8%	1
CN(Cc1ccccc1)C(=O)c1oc(=O)c2ccccc2c1-c1ccccc1	-16	-10%	-16%	-16%	0.1	-19%	20
CN1C(=O)N(C)C2(c3ccccc3)N(C(C)(C)C)C(=O)NC12c1ccccc1 (stereo not given)	-16	12%	-18%	5%	1.2	-2.2%	13
COc1cccc(CC(NC(C)=O)C(=O)NC2CCN(S(=O)(=O)c3cccc4ccccc34)CC2)c1 (stereo not given)	6	-14%	-17%	5%	4.5	-0.6%	-2
Cc1c(CN2CCC(n3nccc3NC(=O)c3cccc(F)c3)CC2)cnn1C	1	5%	4%[15.4 µM]	4%	/	1.4%	0
Cc1ccnn1CC(=O)N/N=C/c1ccc2c(c1)OCO2	-1	4%	4%	14%	/	-26%	-10
O=C(CNC(=O)c1ccco1)NCC(=O)OCC(=O)c1ccc(Cl)c([N+](=O)[O-])c1	7	-10%	-13%	0%	/	0.4%	-5
CCOc1ncccc1C(=O)Nc1nnc(C)s1	9	2%	-52%[inhibitor]	9%	1.2	-1.3%	-2
[O-][n+]1onc2c1CCc1c-2nc(-c2ccccc2)n1OCc1ccccc1	11	-12%	-1%	21%	1.2	0.5%	4
COc1cc(NC(=O)c2cccs2)c(C(=O)OCC(=O)NC(=O)NCc2ccccc2)cc1OC	3	-11%	14%	-22%	1.7	203%	11
[O-][N+]1=C(c2cccs2)CN(O)C1	-7	7%	6%	17%	0.8	-3.6%	-1
C=CCn1c(CC(=O)Nc2cccc(OC)c2)nnc1SCC(=O)NC1CCCCC1	3	0%	?	13%	0.6	0.6%	-10

(cont.)
SMILES	TRPV1 PAM	gsp antag	gsp ag	Sfp PPTase inh	Menin-MLL FL inh	ClpP mod	TRPML1 inh
CCc1nnc(NC(=O)c2ccc(S(=O)(=O)N3CCCC(C)C3)cc2)o1 (stereo not given)	3	-16%	13%	8%	2.0	-1.0%	3
CCc1cccc(CC)c1NC(=S)NCCc1c(C)[nH]c2ccc(C)cc12	28	-9%	?	5%	3.6	-7.3%	9
Cc1ccc(S(=O)(=O)N2CCN(C(=O)CN3C(=O)NC4(CCCCC4)C3=O)CC2)c(C)c1	3	9%	8%[15.4 µM]	/	/	/	6
CCOc1ccc(CCNC(=O)COC(=O)c2ccc(C)c([N+](=O)[O-])c2)cc1OCC	1	11%	-14%	2%	0.6	1.0%	0
COc1ccc2cc(CN(CCO)C(=O)c3ccccc3F)c(=O)[nH]c2c1	?	-1%	-3%	5%	4.1	?	2
